# Screening data from PubChem BioAssay.
# SARS PLpro yeast: inhibitors of SARS-CoV papain-like protease in yeast | S. cerevisiae expressing SARS-CoV PLpro, growth rescue; control for the full effect not named in the record | Potency, µM (doses to about 32.9 µM), for the others: at the highest dose activity, positive = growth rescue | actives 0.19% (n = 330,000) | AID 485353; further: 0% is about no effect; nearly all actives have a fitted effect of over 55% in size; growth read by luminescence after 48 h
# Lassa entry inh: Lassa virus entry inhibition; actives 1.2% (n = 300,000); Potency, µM (titrated, usually from 37.9 µM), for inactives: at the top dose activity change, negative = inhibition, actives largely listed as inhibitors; Lassa virus pseudotype entry inhibition, cell reporter; control for the full effect not named in the record; AID 540256; active means well fitted inhibition curve with a large enough effect; inconclusive means small, poorly fitted or top-dose-only effect, or effect the other way; inactive means flat fitted curve, though single readings scatter; tested in HEK293 cells; further: on the % scale 0 is the no-effect control and ±100 the full control effect; nearly all actives have a fitted effect of over 50% in size; luciferase read-out
# Cruzain inh Det: inhibitors of Trypanosoma cruzi cruzain with detergent | P25779 | purified cruzain, Z-FR-AMC fluorescence, 0.01% Triton | Potency, µM, for the others: max response, negative = inhibition, usual class: inhibitors | actives 0.43% (n = 200,000); active means well fitted curve in the direction sought with a large enough effect; inconclusive means small, poorly fitted or top-dose-only effect, or another doubt; inactive means no such curve, though single readings can be large; an effect the other way counts as inactive or inconclusive;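 further: plate controls were neutral wells for no effect and buffer without enzyme for full effect; nearly all actives have a fitted effect of over 40% in size; top concentration of the series not given in the record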
# Target sequence (P25779 123-467 limits assumed): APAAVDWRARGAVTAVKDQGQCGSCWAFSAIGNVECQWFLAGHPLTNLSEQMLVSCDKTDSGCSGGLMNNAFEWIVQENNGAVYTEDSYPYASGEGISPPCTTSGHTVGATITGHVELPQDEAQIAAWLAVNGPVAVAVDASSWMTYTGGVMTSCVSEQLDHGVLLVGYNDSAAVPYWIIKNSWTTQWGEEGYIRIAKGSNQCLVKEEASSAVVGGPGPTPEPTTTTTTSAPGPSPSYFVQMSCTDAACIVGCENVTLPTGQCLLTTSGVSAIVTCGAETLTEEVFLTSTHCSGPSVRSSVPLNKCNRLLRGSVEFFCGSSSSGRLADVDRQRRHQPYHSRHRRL
#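 Read-out: AMC fluorescence (360 nm excitation, 450 nm emission), four reads over 2 min, first-to-third difference used. Conditions: cruzain 1.5 nM, Z-FR-AMC 2 uM, pH 5.5 acetate, 5 mM DTT, 0.01% Triton X-100.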
# RE007 growth inh: less growth of the S. pombe RE007 Vpr strain; S. pombe RE007 Vpr strain, BacTiter-Glo ATP luminescence, 24 h; control for the full effect not named in the record; Potency, µM (highest dose often 92.2 µM), inactives show top-dose activity change, negative = less growth; actives 0.21% (n = 360,000); AID 651644; active = well fitted falling curve with a large enough effect; inconclusive = small, poorly fitted or top-dose-only effect; inactive = no such curve, though single readings can be large or run the other way;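 further: on the % scale 0 is the no-effect control and ±100 the full control effect; nearly all actives have a fitted effect of over 50% in size; the assay follows cell death caused by Vpr and the record does not say whether a fall means rescue or toxicity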
#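 Fission yeast RE007 carrying one integrated HIV-1 vpr copy, seeded at OD 0.01 in PMG+AL medium with 23 nL pinned compound. Grown 24 h at 30 degrees; viability read by BacTiter-Glo luminescence after 5 min.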
# MARV entry inh: inhibitors of Marburg virus binding or cell entry; AID 540276; Potency, µM (series often up to 37.8 µM), without a hit: at the highest dose activity change, negative = inhibition, hits mostly inhibitors; actives 1.8% (n = 300,000); Marburg virus pseudotyped entry inhibition, cell reporter; control for the full effect not named in the record; about a third of the inactives were read at about 46 µM; active = well fitted inhibition curve with a large enough effect; inconclusive = small, poorly fitted or top-dose-only effect, or effect the other way; inactive = flat fitted curve, though single readings scatter; tested in HEK293 cells; about a fifth of its hits are not listed in these tables; further: on the % scale 0 is the no-effect control and ±100 the full control effect; luciferase read-out
# StopGo reporter: lowers the luciferase signal of an FMDV 2A StopGo reporter | actives 1.2% (n = 410,000) | Potency, µM (highest dose often 57.9 µM), without a hit: at the highest dose signal change, negative = less light | human cells with a luciferase reporter of 2A StopGo recoding; control for the full effect not named in the record; active = well fitted falling curve with a large enough effect; inconclusive = small, poorly fitted or top-dose-only effect; inactive = no such curve, though single readings can be large or run the other way; tested in HEK293T cells; further: on the % scale 0 is the no-effect control and ±100 the full control effect; nearly all actives have a fitted effect of over 45% in size; luciferase light after 4 h
# Cruzain noTriton: blocks cruzain activity in detergent-free assay; AID 1476; actives 2.3% (n = 200,000); P25779; purified cruzain, Z-FR-AMC fluorescence, no detergent; Potency, µM, inactives show max response, negative = inhibition, most hits filed as inhibitors; active means well fitted curve in the direction sought with a large enough effect; inconclusive means small, poorly fitted or top-dose-only effect, or another doubt; inactive means no such curve, though single readings can be large; an effect the other way counts as inactive or inconclusive;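 further: plate controls were enzyme without inhibitor for no effect and buffer without enzyme for full effect; nearly all actives have a fitted effect of over 40% in size; top concentration of the series not given in the record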
#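 Purified cruzain at 1.5 nM, pre-incubated 15 min with compound at room temperature in 100 mM sodium acetate pH 5.5, 5 mM DTT, 0.00005% Triton X-100. Reaction started with 2 uM Z-FR-AMC; AMC fluorescence increase over 60 s gives rate.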
# NS1 function inh: influenza NS1 inhibition | actives 0.4% (n = 270,000) | S. cerevisiae slowed by influenza A NS1, growth recovery by OD600 | Potency, µM (top dose mostly 46.1 µM), without a hit: top-dose activity, positive = more growth; further: actives are rising curves; nearly all actives have a fitted effect of over 50% in size
#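 S. cerevisiae expressing influenza A NS1, grown in glucose, washed, then diluted 1:100 into pH 6.0 -URA galactose medium with 23 nl compound. Growth recovery read as OD600; NS1-free strain serves as control.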
# An asterisk follows results filed as active; ? = inconclusive; . = not tested or not shown; [ ] = dose if it differs, or a comment. Unless noted, the call rests on the fitted dose curve; in most records, active means well fitted rising curve with a large enough effect; inconclusive means small, poorly fitted or top-dose-only effect; inactive means no such curve, though single readings can be large or run the other way. Potency means the concentration at half of the fitted maximal effect.
# Under each structure: SARS PLpro yeast	Lassa entry inh	Cruzain inh Det	RE007 growth inh	MARV entry inh	StopGo reporter	Cruzain noTriton	NS1 function inh
- O=C(Nc1cccc(S(=O)(=O)N2CCOCC2)c1)c1cc2ccccc2o1
  -4%	?	.	-17%	1%	-13%	.	?
- CC(C)c1ccc(-n2cnn(-c3ncccc3[N+](=O)[O-])c2=O)cc1
  -2%	?	.	-15%	-22%[46.1 µM]	1%	.	-4%
- COc1cc(C=C2C(=O)NC(=O)NC2=O)ccc1OS(=O)(=O)c1ccccc1[N+](=O)[O-]
  -2%	22%[46.1 µM]	.	-17%	?	0%	.	15%
- Cc1cc2c(cc3c(SCc4ccc(Cl)cc4)nnc(C)n32)o1
  .	21%[46.1 µM]	-5.5%	.	.	3%	?	.
- Cn1c(=O)n(C)c2cc(NC(=O)c3cc4ccccc4o3)ccc21
  -7%	0%	-1.8%	-6%	14%	.	19%	-44%
- O=C(O)c1cccc(S(=O)(=O)Nc2ccc(OCc3ccccc3)cc2)c1
  1%	16%[46.1 µM]	.	0%	0%[46.1 µM]	3%	.	29%
- COc1ccc(NC(=O)c2c[nH]c(=O)n(-c3ccc(C)c(C)c3)c2=O)cc1OC
  1%	.	.	0%	.	-9%	.	-9%
- Cn1c(CNc2ccc(Cl)cc2)nc2ccccc21
  -5%	?	-1.8%	-22%	-18%	-3%	1%	-22%
- C/C(=N\NC(=O)CCn1nnc2ccccc21)c1cccs1
  0%	1%[46.1 µM]	.	30%	39%[46.1 µM]	-3%	.	-4%
- Cc1ccc(NC(=S)NCc2ccc(F)cc2)cc1
  .	5%	.	-1%	-1%[46.1 µM]	34%[activator]	.	.
- COc1ccc(-n2cnc3c(N)nc(N)nc32)cc1
  .	28%	.	-21%	20%	12%	.	.
- O=C1/C(=C/c2cccnc2)CCc2c1[nH]c1ccccc21
  -3%	-22%	.	-3%	?	37%[activator]	.	-43%
- CNC(=O)c1cccn(Cc2cc(C(F)(F)F)cc(C(F)(F)F)c2)c1=O
  -8%	?	.	2%	-19%[46.1 µM]	-22%	.	.
- COc1ccc(S(=O)(=O)N2Cc3ccccc3CC2C(=O)Nc2ccc(O)cc2)cc1OC (stereo not drawn)
  2%	.	-7.0%	4%	-1%	-13%	2%	-36%
- Cc1ccccc1OCC(=O)NCC(C)(C)N1CCOCC1
  -5%	2%	.	-3%	-8%[46.1 µM]	44%[activator]	.	.
- O=C(Nc1ccccc1N1CCOCC1)c1ccccc1NS(=O)(=O)c1ccc(F)c(F)c1
  -21%	-7%	0.6%	3%	?	?	-6%	-6%
- O=C1CCc2cc(S(=O)(=O)NC(C(=O)Nc3ccc(F)cc3)c3ccccc3)ccc2N1 (stereo not drawn)
  .	10%[46.1 µM]	0.3%	.	-14%[46.1 µM]	-15%	0%	.
- COc1ccc(NC(=O)c2ccco2)cc1NC(=O)c1cccc(C)c1OC
  .	?	-8.1%	.	?	-15%	-3%	.
- CN(C)CCCNC(=O)c1cc(C(=O)c2ccc(F)cc2)c[nH]1
  0%	-19%	.	-8%	-17%[46.1 µM]	13%	.	.
- O=C(NC1CC(=O)N(c2cccc(F)c2)C1)c1ccc(S(=O)(=O)N2CCCC2)cc1 (stereo not drawn)
  .	-4%[46.1 µM]	-3.0%	.	.	-24%	-3%	.
- Cn1c(=O)cc(SCC(=O)NCc2ccc(F)cc2)c2ccc(Cl)cc21
  .	16%[46.1 µM]	-0.8%	.	6%[46.1 µM]	-24%	-4%	.
- O=C(Cn1cc(C(=O)C2CC2)c2ccccc21)NC1CCCC1
  -3%	25%	-0.2%	25%	?	10%	-8%	2%
- COc1cccc(CC2(CO)CCCN(S(=O)(=O)N(C)C)C2)c1 (stereo not drawn)
  0%	.	.	-6%	-2%[46.1 µM]	-16%	.	-2%
- COc1ccc(-c2[nH]c3ccccc3c2SCCN)cc1
  -1%	.	.	-5%	.	-10%	.	-4%
- CC(=O)N1CCOc2ccc(S(=O)(=O)NCc3ccccc3Cl)cc21
  5%	.	.	-14%	.	15%	.	11%
- COc1ccc(N2CCN(C(CNC(=O)C(=O)NCCCN(C)C)c3cccnc3)CC2)cc1 (stereo not drawn)
  .	12%[46.1 µM]	-2.1%	.	.	-10%	11%	.
- Cc1ccc(NC(=O)CCC(=O)N2Cc3ccccc3Oc3ncccc32)cc1Cl
  .	1%[46.1 µM]	-5.1%	.	.	-19%	-3%	.
- COc1ccc(-c2csc(NC(=S)NC(=O)/C=C/c3ccccc3)n2)cc1Br
  -1%	?	.	-16%	-24%	-1%	.	3%
- CCCc1cc(=O)oc2cc(OCC(=O)N3C[C@H]4C[C@@H](C3)c3cccc(=O)n3C4)ccc12
  -1%	.	.	-13%	.	-16%	.	15%
- CCCN(CCC)S(=O)(=O)c1ccc(C(=O)Nc2nnc(CSC)o2)cc1
  -3%	?	3.1%	9%	?	0%	11%	-13%
- CC(/C=C1\SC(=S)N(NC(=O)c2ccc(O)cc2)C1=O)=C\c1ccccc1
  -43%	10%	-5.2%	-13%	?	-16%	6%	-23%
- CCCCOc1ccc(C(=O)Nc2cccc(C)n2)cc1
  -11%	?	-2.3%	-23%	?	-15%	2%	-108%
- Cc1ccc(NC(=O)c2ccc(S(=O)(=O)N3CCCC3)cc2)cc1
  .	?	.	17%	4%	-16%	.	-16%
- COc1ccc(NC(C)=O)cc1S(=O)(=O)Nc1ccc(C(=O)N2CCCC2)cc1
  0%	.	.	7%	.	11%	.	-3%
- COc1cc(CN2CCNC(=O)C2CC(=O)N(Cc2nccn2C)C(C)C)cc(OC)c1 (stereo not drawn)
  1%	.	.	-9%	.	-15%	.	-9%
- CCc1nnc(NC(=O)CCC(=O)NC2CCCc3ccccc32)s1 (stereo not drawn)
  -3%	11%	1.7%	-4%	2%	-3%	?	9%
- CCOC(=O)C(C)Sc1nc2ccccc2c(=O)n1CC1CCCCC1 (stereo not drawn)
  -16%	-3%	-1.1%	-4%	9%	-25%	0%	8%
- Cc1cccc2nc(Cn3c(=O)n(-c4ccc(Cl)cc4)c(=O)c4c5c(sc43)CCC5)cc(=O)n12
  .	-1%[46.1 µM]	-0.8%	.	-14%[46.1 µM]	-3%	10%	.
- CCC(=O)N1CCN=C1SCc1ccccc1
  2%	.	-0.7%	10%	1%	-9%	-7%	-3%
- CCOC(=O)c1c(-c2ccccc2)oc2ccc(NS(=O)(=O)c3ccc(C)cc3)cc12
  .	?	0.4%	.	.	23%	?	.
- COc1ccc2c(c1OC)C(=O)N1c3ccccc3N=C(c3ccc([N+](=O)[O-])cc3)CC21 (stereo not drawn)
  4%	-14%	-6.2%	-20%	-14%	0%	-18%	?
- COc1cc(C2NC(=O)NC(C)=C2C(=O)OCC2CCCO2)cc(OC)c1OC (stereo not drawn)
  -1%	10%[46.1 µM]	.	-6%	2%[46.1 µM]	10%	.	-1%
- O=C(Nc1cccc(O)c1)C1CCCN1C(=O)OCc1ccccc1 (stereo not drawn)
  0%	-23%	2.3%	-3%	1%[46.1 µM]	-2%	2%	-3%
- CN1c2ccsc2C(O)=C(C(=S)Nc2ccccc2)S1(=O)=O
  -18%	2%	-10%	?	6%[46.1 µM]	-4%	-13%	-6%
- Cc1cccc(OCCC(=O)Nc2ccc(F)c(F)c2)c1
  -3%	11%	.	10%	?	4%	.	.
- CC(=O)Nc1nonc1-c1nnc(SCc2ccc(F)cc2)n1C
  .	7%[46.1 µM]	0.2%	.	18%[46.1 µM]	-13%	-3%	.
- CCOc1nc(OCC)c2cnn(C)c2n1
  1%	-7%[46.1 µM]	.	-14%	5%[46.1 µM]	11%	.	-1%
- Cn1c(=O)c2c(-c3ccc(Br)cc3)n(CCc3ccccc3)cc2n(C)c1=O
  .	-21%[46.1 µM]	-14%	.	?	2%	?	.
- Cc1c(C(=O)CN2CCN(c3ccccc3)CC2)c2ccccc2n1C
  -1%	3%[46.1 µM]	.	-1%	-21%[46.1 µM]	3%	.	-4%
- CC1(C)CC(=O)c2cc(C(=O)N3CCN(CCO)CC3)c(=O)n(-c3ccc(Cl)cc3)c2C1
  -3%	1%	1.7%	-8%	1%	.	5%	1%
- O=C(NCCc1ccccc1F)[C@@H]1CSC2c3ccccc3C(=O)N21 (stereo partly drawn)
  -2%	11%	1.0%	20%	-2%[46.1 µM]	2%	-6%	0%
- COCCNC(C(=O)Nc1ccc([N+](=O)[O-])cc1Br)c1ccccc1 (stereo not drawn)
  -6%	-5%	-4.9%	2%	-9%	?	-10%	8%
- CCN1CCN(Cc2cc(C(C)(C)C)c(O)c(C(C)(C)C)c2)CC1
  -15%	.	3.7%	.	.	.	-4%	-10%
- Cc1ccc(C(=O)CC(=O)c2ccc(C)cc2O)cc1
  -2%	3%	.	-11%	?	62%[activator]	.	-6%
- O=C(COC(=O)/C=C/c1nc2ccccc2s1)Nc1ccccc1Oc1ccccc1
  1%	-2%	-2.8%	1%	22%	11%	15%	2%
- Cc1ccc(/C=C/c2nnc(-c3cccc(C)c3)o2)cc1
  -1%	4%	-16%	8%	25%	.	-3%	-9%
- Cc1ccc(/C(O)=C2\C(=O)C(=O)N(Cc3cccnc3)C2c2ccccc2[N+](=O)[O-])cc1 (stereo not drawn)
  -5%	17%	-6.6%	-6%	?	21%	-1%	14%
- O=C(NCC1CCCO1)c1cccc(N2C(=O)C3C4C=CC(C4)C3C2=O)c1 (stereo not drawn)
  -3%	-5%	3.7%	-13%	2%[46.1 µM]	-15%	-2%	-5%
- COCCNC(=O)c1cc2c(=O)[nH]c3ccccc3c2s1
  0%	20%[46.1 µM]	.	-1%	-17%[46.1 µM]	-2%	.	3%
- CCn1c(=O)cc(SCC(=O)N2CCN(c3ccccn3)CC2)c2ccccc21
  -1%	-1%	0.6%	-8%	?	18%	3%	-17%
- Cc1oc2c(c1C(=O)Nc1ccc(Cl)cc1F)C1=NCCN1C=N2
  .	24%[46.1 µM]	-2.6%	.	.	-21%	2%	.
- CN1C(=O)N(C)c2cccc3cccc1c23
  0%	1%[46.1 µM]	.	-6%	1%[46.1 µM]	-16%	.	5%
